D2 potentiator: Beta-Arrestin HTS for Positive Allosteric Modulators of the Human D2 Dopamine Receptor: Potentiators; hit rate 0.23% among 360,000; AID 624464, 2012; DiscoveRx D2 beta-arrestin cells, luminescence, 90 min; 100% = 57 uM dopamine signal; potentiation, % (concentration not given with the values); D(2) dopamine receptor (Homo sapiens), P14416; active = potentiation of 50% or more; inconclusive = 30% to 50%; inactive = 30% or less;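 also: compound concentration not given in the record; tested on top of an EC20 dose of dopamine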
Target sequence (P14416 whole entry, looked up): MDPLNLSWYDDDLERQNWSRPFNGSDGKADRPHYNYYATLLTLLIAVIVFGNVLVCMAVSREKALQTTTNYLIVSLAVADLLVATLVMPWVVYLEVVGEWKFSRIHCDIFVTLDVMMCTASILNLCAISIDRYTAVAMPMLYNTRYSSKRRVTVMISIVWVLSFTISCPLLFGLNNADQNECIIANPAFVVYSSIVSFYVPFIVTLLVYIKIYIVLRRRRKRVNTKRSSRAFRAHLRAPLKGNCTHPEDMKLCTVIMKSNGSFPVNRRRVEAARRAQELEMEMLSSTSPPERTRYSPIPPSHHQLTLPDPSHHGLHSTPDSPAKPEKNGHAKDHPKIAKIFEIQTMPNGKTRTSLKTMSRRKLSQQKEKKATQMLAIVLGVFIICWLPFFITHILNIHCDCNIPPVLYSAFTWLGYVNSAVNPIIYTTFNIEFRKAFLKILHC
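PathHunter D2 cells, attached overnight at 37 deg C, received compound in DMSO plus dopamine at EC20 (50 nM final) for 90 min at 37 deg C. Beta-arrestin recruitment was read as luminescence after 1 h with detection reagent at ambient temperature.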
Six1-Eya2 blk: qHTS Assay for Inhibitors of the Six1/Eya2 Interaction | AlphaScreen GST-Six1/His-Eya2 binding, biochemical; hits give low values; control for the full effect not named in the record | hit rate 0.56% among 360,000 | activity change, % (test concentration not listed); in the data active = activity change below about -65%; inconclusive = about -30% to -65%; inactive = above about -30%; also: % is scaled to controls: 0 for no effect and ±100 for the full control effect; compound concentration not given in the record
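Homogeneous AlphaScreen proximity assay pairing GST-Six1 with His-tagged Eya2 (added as 5X mix: 250 nM and 500 nM) in 50 mM Tris pH 8.0, 300 mM NaCl, 1 mM TCEP. Glutathione donor and nickel acceptor beads; 1 h, 37 °C, dark.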
TRPML1 inh: qHTS for Inhibitors of the Human Mucolipin Transient Receptor Potential 1 (TRPML1); Mucolipin-1 (Homo sapiens), Q9GZU1; TRPML1-inducible cells, Ca2+ dye fluorescence, FDSS; hits give low values; inhibition of EC80 agonist-evoked calcium signal; activity change, negative = inhibition, % (test concentration not listed); hit rate 0.02% among 390,000; AID 624415, 2012; in the data active means activity change below about -50%; inconclusive means about -30% to -50%; inactive means above about -30%;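 also: stimulus is agonist 54-4 at its EC80 concentration; % is scaled to controls: 0 for no effect and ±100 for the full control effect; compound concentration not given in the record; the text of the record puts the active cut at -80%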
Target sequence (Q9GZU1 whole entry, looked up): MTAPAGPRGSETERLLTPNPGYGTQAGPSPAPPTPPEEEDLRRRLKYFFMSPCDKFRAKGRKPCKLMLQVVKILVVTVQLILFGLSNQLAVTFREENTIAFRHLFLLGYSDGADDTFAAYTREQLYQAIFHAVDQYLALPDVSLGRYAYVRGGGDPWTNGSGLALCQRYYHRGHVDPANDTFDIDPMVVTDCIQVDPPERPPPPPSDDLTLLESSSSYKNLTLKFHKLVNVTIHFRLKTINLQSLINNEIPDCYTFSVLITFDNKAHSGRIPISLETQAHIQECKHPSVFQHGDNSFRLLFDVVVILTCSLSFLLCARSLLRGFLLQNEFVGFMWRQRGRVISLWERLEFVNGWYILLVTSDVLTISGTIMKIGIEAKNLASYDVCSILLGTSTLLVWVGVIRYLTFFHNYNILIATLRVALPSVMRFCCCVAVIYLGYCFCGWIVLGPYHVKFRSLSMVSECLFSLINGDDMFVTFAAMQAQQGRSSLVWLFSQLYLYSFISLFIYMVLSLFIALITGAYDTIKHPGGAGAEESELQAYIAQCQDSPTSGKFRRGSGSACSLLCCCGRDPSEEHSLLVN
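TRPML1-DL cells, Tet-induced overnight (~16 h, 37 °C) at 1,500 cells/well, were loaded with Ca8 no-wash dye plus quencher for 45-90 min at room temperature. Compounds were pinned during FDSS kinetic reading; agonist 54-4 at EC80 (4 uM final) then added.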
TRPML1 ag: qHTS for Agonists of the Human Mucolipin Transient Receptor Potential 1 (TRPML1). TRPML1-expressing cells, Ca2+ dye fluorescence, FDSS; host cell line not named in the record; reference of the full effect not given here. activation, % (concentration not given with the values). hit rate 0.12% among 410,000. AID 624414, 2012; in the data active = activation above about 50%; inconclusive = about 30% to 50%; inactive = below about 30%; also: 0% is about no effect; the text of the record puts the active cut at 80%
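Kinetic FDSS Ca2+ read in Tet-induced TRPML1-DL cells (ABD Ca8 dye plus quencher, 45-90 min RT loading): baseline, then compound, then 110 s agonist window; EC80 agonist 54-4 at 4uM final added afterwards for a 110 s antagonist window.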
PINK1 expr mod: A Quantitative High throughput Screen to Identify Chemical Modulators of PINK1 Expression; PINK1 immunofluorescence, high-content cytometry, 24 h; Potency, µM (titrated, usually from 76.6 µM), for the others: top-dose activation (PINK1 increase), hits mostly activators; hit rate 0.2% among 410,000; active = well fitted activation curve with a large enough effect; inconclusive = small, poorly fitted or top-dose-only effect; inactive = flat fitted curve, though single readings scatter; cell line not stated here;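 also: potency is read from the fitted curve at half-maximal effect; % of control where 0% means no effect; nearly all actives have a fitted effect of over 65% in size; a mitochondrial uncoupler was the plate control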
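A stable cell line was treated with compounds at 5 concentrations for 24 hours, with CCCP as control. PINK1 levels and mitochondrial localization were measured by immunofluorescence with mitochondrial, cell and nuclear markers after fixation, read by laser-scanning cytometry.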
D2 agonist: Beta-Arrestin HTS for Positive Allosteric Modulators of the Human D2 Dopamine Receptor: Agonists. D(2) dopamine receptor (Homo sapiens), P14416. AID 624465, 2012. DiscoveRx PathHunter D2 beta-arrestin, luminescence, 90 min; 100% = 57 uM dopamine signal. activation, % (no concentration beside the values). hit rate 0.084% among 360,000; in the data active = activation above about 40%; inconclusive = about 15% to 40%; inactive = below about 15%; also: compound concentration not given in the record; the text of the record calls up to 30% inactive
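DiscoveRx PathHunter D2 beta-arrestin cells (2,100/well) attached overnight, then compound-stimulated 90 min at 37 C in HBSS/10 mM HEPES/0.1% Tween-20 buffer; beta-galactosidase complementation read by luminescence after 1 h at ambient temperature. Dopamine 57 uM final (EC100) as control.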
* marks the source's active call; other numbers are inactive results; ? = inconclusive; . = no result given; [ ] = dose if it differs, or a comment.

Fields – D2 potentiator	Six1-Eya2 blk	TRPML1 inh	TRPML1 ag	PINK1 expr mod	D2 agonist
- Cc1nc2cc(-c3cccc(F)c3)nn2c(C)c1CCC(=O)NCCc1ccccc1
  .	.	2	14	3.0%	.
- Cc1ccc(C(=O)N2CCC3(CC2)Oc2ccc(Cl)cc2C(=O)C32CC(c3ccccc3)=NO2)s1 (stereo unspecified)
  -24	0	-6	-0.8	1.1%	-1.3
- CCOc1ccc(C(C)NC(=O)Nc2ccccc2C(=O)OC)cc1 (stereo unspecified)
  -9	0	2	3.9	11%[38.3 µM]	0.1
- Cc1ccc(NC(=O)CN(C)CC(=O)Nc2c(C)cccc2C)c(Br)c1
  -5	-2	-7	-0.5	3.1%	-2.4
- CC(=O)Nc1ccc(C(=O)Nc2nc(-c3cccnc3)cs2)cc1
  -14	-6	-9	0.0	0.6%	-0.3
- COc1cccc(-c2c(C(=O)N/N=C(\C)c3ccncc3)nnn2-c2nonc2N)c1
  -10	0	5	0.7	0.0%	2.7
- CCCOc1cccc(C2/C(=C(/O)c3ccc4c(c3)CC(C)O4)C(=O)C(=O)N2CCN2CCOCC2)c1 (stereo unspecified)
  0	1	10	-0.4	-1.1%	-2.4
- CCOC(=O)CCNC(=O)CNC(=O)OCc1ccccc1
  -13	1	-8	-0.8	-0.5%	-2.0
- CCCCNC(=O)CSc1nnc(Cc2ccc(Cl)c(Cl)c2)c(=O)[nH]1
  -11	-1	-16	1.5	-0.7%	-4.4
- O=C(NCCS(=O)(=O)c1ccc(Br)cc1)c1ccccc1
  -13	-5	-1	0.2	-0.6%	-6.0
- Cc1ccc(S(=O)(=O)CCCS(=O)(=O)c2ccc(C)cc2)cc1
  -4	1	-1	0.4	0.2%	9.3
- CN(C)S(=O)(=O)c1cccc(NC(=O)COC(=O)CCC(=O)c2cccs2)c1
  5	-22	27	-0.5	4.5%	-1.0
- COc1cc([N+](=O)[O-])ccc1NC(=O)C[n+]1cccc(C(C)=O)c1
  -18	15	10	0.2	-1.5%	-1.6
- COc1ccc(-c2cc3nc(C4CCN(C(=O)OC(C)(C)C)CC4)c(C(=O)Nc4cc(Cl)cc(Cl)c4)cn3n2)cc1
  .	.	21	1.2	1.2%	.
- CCCCN(Cc1ccccc1)C(=O)C1CCN(S(=O)(=O)c2c(C)noc2C)CC1
  -5	-5	12	-0.4	29%[38.3 µM]	-0.7
- O=C(COc1ccc(Cl)cc1Br)N1CCN(c2ncccn2)CC1
  -16	22	-10	1.3	-2.4%	-5.1
- Cc1ccccc1-n1c(SC(C)C(N)=O)nnc1-c1cccnc1 (stereo unspecified)
  -3	6	28	0.7	10µM*	-2.6
- COc1ccc(-n2c(SCC(=O)Nc3ccc4c(c3)OCO4)nnc2C(C)N2CCCCC2)cc1 (stereo unspecified)
  -14	1	1	-0.2	0.2%	-1.4
- COc1ccc(C(=O)NCCS(=O)(=O)N2CCN(Cc3ccccc3)CC2)cc1
  -16	-14	-3	-0.7	4.5%	-0.5
- COc1cc(OC)cc(C(=O)NNC(=O)CN2C(=O)NC(C)(c3ccc(C)cc3)C2=O)c1 (stereo unspecified)
  1	1	-9	-0.3	4.0%	-0.3
- CCC(C)NC(=O)c1ccc(Cl)c(S(=O)(=O)Nc2ccccc2N2CCOCC2)c1 (stereo unspecified)
  -2	7	6	-0.2	-0.2%	0.1
- CC(NC(=O)CSc1nc(=O)cc(N)n1CCc1ccccc1)c1ccccc1 (stereo unspecified)
  -10	-20	12	-0.4	-0.1%	-2.8
- Nn1c(SCC(=O)Nc2nc3ccccc3s2)nncc1=O
  -3	2	?	0.0	?	1.4
- C[C@H](NC(=O)[C@H](Cc1ccccc1)NC(=O)c1cc2cc(Cl)ccc2n1C)C(=O)O
  -18	0	-3	0.8	0.7%	1.9
- O=C(NCc1ccccc1)c1[nH]c(C(F)(F)F)nc1-c1ccccc1
  -5	-13	.	0.3	3.9%	-4.3
- COc1cc(NS(=O)(=O)c2ccc(NC(=O)c3cccc(F)c3)cc2)nc(OC)n1
  .	.	-3	-0.4	1.8%	.
- CC(=O)Nc1ccc(NC(=O)c2c(C)nn(-c3ccccc3)c2Cl)cc1C
  -7	-5	37	-0.7	1.1%	1.6
- COc1ccc(OC)c(NC(=O)c2cccc(NC(=O)c3ccccc3C(=O)O)c2)c1
  -9	1	53	1.5	2.0%	-4.8
- COc1ccc([C@H]2CN(c3ccc(OC)cc3)C(=O)[C@@H]2CC(=O)Nc2ccc(Br)cc2)cc1
  -1	-10	1	0.3	0.1%	-2.2
- COc1cc([N+](=O)[O-])ccc1NC(=S)NNC(=O)CCC(=O)Nc1ccccc1Cl
  -24	-5	-13	-0.6	-0.1%	-11

Part of the list above, field by field:
COc1cc(NS(=O)(=O)c2ccc(NC(=O)c3cccc(F)c3)cc2)nc(OC)n1
  D2 potentiator: .
  Six1-Eya2 blk: .
  TRPML1 inh: -3
  TRPML1 ag: -0.4
  PINK1 expr mod: 1.8%
  D2 agonist: .
CC(=O)Nc1ccc(NC(=O)c2c(C)nn(-c3ccccc3)c2Cl)cc1C
  D2 potentiator: -7
  Six1-Eya2 blk: -5
  TRPML1 inh: 37
  TRPML1 ag: -0.7
  PINK1 expr mod: 1.1%
  D2 agonist: 1.6
COc1ccc(OC)c(NC(=O)c2cccc(NC(=O)c3ccccc3C(=O)O)c2)c1
  D2 potentiator: -9
  Six1-Eya2 blk: 1
  TRPML1 inh: 53
  TRPML1 ag: 1.5
  PINK1 expr mod: 2.0%
  D2 agonist: -4.8

(listing goes on)
Fields – D2 potentiator	Six1-Eya2 blk	TRPML1 inh	TRPML1 ag	PINK1 expr mod	D2 agonist
- CSc1ncnc2c1ncn2CCCN(C)CCc1ccccn1
  .	1	.	.	0.3%	0.2
- COC(=O)c1ccc(CN2C(=O)NC3(CCC(C)CC3)C2=O)cc1 (stereo unspecified)
  -2	32	9	0.3	2.1%	-2.2
- Cc1onc(-c2ccccc2Cl)c1C(=O)Nc1ccc(-n2nncc2C(C)(C)C)cc1
  0	1	41	0.2	4.4%[38.3 µM]	-1.5
- O=[N+]([O-])c1nn(-c2ccc3c(c2)OCCO3)n(O)c1=NCc1ccccc1Cl
  54*	-3	1	-0.4	1.6%[38.3 µM]	12
- O=C(COc1ccc2ccccc2c1)Nc1nnc(-c2ccco2)s1
  2	-5	13	0.7	4.8%	1.4
- CN(Cc1c(C(=O)N/N=C/c2ccc(F)cc2)nnn1-c1nonc1N)C1CCCCC1
  -1	-2	20	-0.7	8.8%	-2.7
- CN(c1ccccc1)S(=O)(=O)c1cccc(C(=O)Nc2ncn[nH]2)c1
  8	0	-3	0.2	3.3%	0.0
- CCc1cc2cc(C)cc(C)c2[nH]c1=S
  -4	0	2	5.2	4.4%	-4.8
- O=C(Cn1cnc2c(nnn2Cc2ccc(Cl)cc2)c1=O)NC1CCCC1
  14	3	0	3.0	2.8%[38.3 µM]	-1.3
- Cc1ccc(S(=O)(=O)N(CC(O)Cn2c3ccccc3c3ccccc32)c2cccc(C(=O)N(C)C)c2)cc1 (stereo unspecified)
  .	.	4	2.0	-0.8%	.
- Cc1nc2c3ccccc3nc(NNC(=O)CCC(=O)O)n2n1
  .	.	1	-0.3	0.1%	.
- CCc1noc(C)c1C(=O)N1CCN(c2cccc(Cl)c2)CC1
  3	4	10	-0.6	1.7%	1.0
- COc1nnc(-c2ccc(N3CCCCC3)c(NC(C)=O)c2)c2ccccc12
  1	-5	14	1.0	3.8%	-2.5
- Oc1ccc2ccccc2c1C=Nc1ccc(N2CCOCC2)cc1
  3	-16	-2	22	-1.6%	-5.0
- C[C@@H]1CN([C@H](C)CO)C(=O)CCCn2nncc2CO[C@H]1CN(C)Cc1ccc2c(c1)OCCO2
  5	6	-5	-0.1	-1.8%	-8.7
- O=C(CN1CCN(CC(=O)c2ccc(Cl)cc2)CC1)c1ccc(Cl)cc1
  -26	7	-6	0.5	0.7%	-0.4
- Cc1cc(NC(=O)COc2ccc(N(C)S(=O)(=O)c3ccccc3)cc2)no1
  -17	-2	17	1.8	0.9%	-2.2
- N#CCC(=O)Nc1ccc(C(=O)Nc2cccc(S(N)(=O)=O)c2)cc1
  -4	5	-7	1.3	-0.6%	-2.5
- COc1ccc(S(=O)(=O)N(C)c2ccc(C(=O)NCc3ccccn3)cc2)cc1
  0	-3	-7	-0.2	0.5%	0.3
- CC(C#N)(NC(=O)CN1CCN(S(=O)(=O)c2ccc(Br)cc2Cl)CC1)C1CC1 (stereo unspecified)
  -5	-1	-7	-0.5	-0.2%	-2.2
- COc1cc2c(cc1OC)C(c1ccc(Br)cc1)N(C(=O)c1ccccc1C(=O)O)CC2 (stereo unspecified)
  1	14	10	-0.5	-0.3%	-0.4
- COCOCCn1cc(CN2CCS(=O)(=O)N(Cc3ccc(-c4ccc(Cl)nc4)cc3)C(C(C)C)C2=O)nn1 (stereo unspecified)
  2	10	-13	0.3	1.9%	-2.0
- Cc1cc(NCc2ccncc2)ccc1Br
  -3	3	6	0.6	-0.4%	-2.8
- O=C(COc1ccc(Cl)cc1)Nc1cc(NC(=O)COc2ccc(Cl)cc2)cc(C(=O)O)c1
  1	-3	-18	-0.3	1.0%	-5.1
- CC1CC(C)CN(CCCNC(=O)CCNC(=O)Cn2ccc3ccccc3c2=O)C1 (stereo unspecified)
  -6	-3	0	-0.7	3.2%	-1.6
- CC1C(=O)N(Cc2cn(CCC3OCCCO3)nn2)CCS(=O)(=O)N1Cc1ccc(-c2ccccc2)cc1 (stereo unspecified)
  6	-3	-10	-0.2	3.2%	-11
- CC(C)CC(=NNC(=O)c1ccncc1)c1cc(Cl)ccc1O
  3	0	7	71*	8.3%	-3.4
- OCCCNc1cc(-c2ccccc2)nc2cc(-c3ccc(F)cc3)nn12
  -1	1	13	-0.1	3.9%	-0.8

Bioassay records as filed in PubChem BioAssay.
